STK33 kinase inh: human STK33 kinase inhibition; AID 2661; 320,000 tested, 0.073% active; Q9BYT3; purified STK33, MBP phosphorylation, ADP-Glo luminescence; inhibition, % at 10 µM;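 active means inhibition at or above 25%, using the most active replicate where run in duplicate; inactive means inhibition below 25%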
Target sequence (Q9BYT3 whole entry, looked up): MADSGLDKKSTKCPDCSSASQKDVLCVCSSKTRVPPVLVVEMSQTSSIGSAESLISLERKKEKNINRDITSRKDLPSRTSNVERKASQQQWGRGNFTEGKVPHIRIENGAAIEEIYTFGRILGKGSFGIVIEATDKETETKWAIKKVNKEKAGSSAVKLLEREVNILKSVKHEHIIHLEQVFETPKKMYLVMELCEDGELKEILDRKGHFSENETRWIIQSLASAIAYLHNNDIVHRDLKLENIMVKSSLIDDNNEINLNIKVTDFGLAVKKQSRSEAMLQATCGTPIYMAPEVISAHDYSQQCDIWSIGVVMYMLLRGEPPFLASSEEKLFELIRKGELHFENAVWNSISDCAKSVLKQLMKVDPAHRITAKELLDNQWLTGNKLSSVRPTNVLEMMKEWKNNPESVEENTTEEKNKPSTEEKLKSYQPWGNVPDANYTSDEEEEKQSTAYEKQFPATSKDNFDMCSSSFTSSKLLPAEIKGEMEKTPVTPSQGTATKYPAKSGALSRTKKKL
The depositor's hits bear a star. The list is partial, and most or all hits are left out here.

nr	smiles	STK33 kinase inh
1	O=C(NC1CCc2ccccc21)c1cc(COc2c(F)cccc2F)on1 (configuration not stated)	-0.7
2	CC(C(=O)N1CCOCC1)(c1ccccc1)c1ccccc1	0.4
3	CC(=O)N1CCC(N(CCN2CCOCC2)C(=S)Nc2ccccc2C)CC1	-1.0
4	COc1ccc(OC)c2c(N3CCN(C)CC3)cc(C(F)(F)F)nc12	-0.7
5	COc1ccccc1N1CCN(C(=O)COc2ccc(S(=O)(=O)NC(C)C)cc2)CC1	0.6
6	Cc1cc(=O)[nH]c(SCC(=O)NCCC2=CCCCC2)n1	0.7
7	O=C(CCS(=O)(=O)c1ccc(Cl)cc1)Nc1nc(-c2ccncc2)cs1	-2.1
8	Cc1ccc(C2=NS(=O)(=O)N(C)C(C(=O)Nc3ccc(F)cc3F)=C2)cc1	1.7
9	CC(C)c1ccc(OCC(O)CN2CCCC2)cc1 (configuration not stated)	-1.0
10	NC(=O)NC(=O)CSc1nnc(-c2ccc(Cl)cc2)n1CC1CCCO1 (configuration not stated)	-2.5
11	O=C(Nc1ccccc1Br)c1c(F)cccc1Cl	3.9
12	COc1ccc(N(CC(=O)NC2CCCC2)C(=O)CS(=O)CC(=O)Nc2ccc3c(c2)OCO3)cc1 (configuration not stated)	-1.6
13	O=C(CSc1nc(=O)n2cc(Cl)ccc2n1)Nc1ccc2c(c1)OCO2	0.7
14	Cc1cccc(-c2cc3c(nn2)-c2ccccc2C3=O)c1	-0.4
15	CCSc1nc(N)c2c3c(sc2n1)CCC3	-0.2
16	Cc1cc(C)nc(/N=C2\NC(=O)CC(C(=O)O)N2c2cccc(Cl)c2)n1 (configuration not stated)	-1.9
17	CCn1c(SCC(=O)NCc2ccco2)nc2cccnc21	-0.5
18	COc1ccc(Cc2nc3ccc(S(=O)(=O)N4CCOCC4)cc3[nH]2)cc1OC	-1.7
19	COCCNC(=O)C(c1ccncc1)N(C(=O)c1sc(C)nc1C)c1cccc(C)c1 (configuration not stated)	-1.9
20	O=C(NCc1nc2ccccc2[nH]1)C1=C[C@H](C2CCCCC2)C[C@H](OCCCCO)O1	-0.7
21	CC(C)(C)c1ccc(NC(=O)c2ccsc2)cc1	-1.1
22	Cc1onc(-c2ccccc2Cl)c1C(=O)N1CCCCC1C(=O)O (configuration not stated)	-1.3
23	Nc1ccccc1C(=O)Nc1nccs1	3.5
24	O=C(Nc1cc(S(=O)(=O)N2CCOCC2)ccc1N1CCCC1)c1ccc2c(c1)S(=O)(=O)c1ccccc1C2=O	3.8
25	Cc1cc(C(=O)NCCc2ccc(S(N)(=O)=O)cc2)no1	-0.2
26	COc1cccc(-c2cc(C(=O)NCCCn3ccnc3)no2)c1	0.2
27	Cc1ccc(S(=O)(=O)c2cc(O)ccc2O)cc1C	-1.3
28	Cc1ccc(C(=O)COC(=O)CCN2C(=O)C3C4CCC(C4)C3C2=O)cc1C (configuration not stated)	-0.1
29	COc1ccc(/C=C2\CCC(C3CCCC3)C2=O)c(OC)c1 (configuration not stated)	-2.3
30	CC1CC(C)CN(C(=O)c2ccc(C#N)cc2)C1 (configuration not stated)	-0.6
31	CC(C)=CCN1CCN(CC#Cc2ccccc2)CC1CCO (configuration not stated)	0.5
32	CC(Sc1nnc(COc2ccc3ccccc3c2)n1C)C(=O)O (configuration not stated)	0.7
33	CCOC(=O)N1CCN(C(=S)NC(=O)C23CC4CC(CC(C4)C2)C3)CC1	-0.7
34	CCOC(=O)C1=C(C)N=C(SC)N(C)C1c1ccccc1 (configuration not stated)	2.2
35	CCOc1ccc(C2CC(=O)c3c([nH]c(C(=O)OC)c3C)C2)cc1OC (configuration not stated)	0.6
36	COc1cc(NC(=O)CN2CCC(C(N)=O)(N3CCCCC3)CC2)c(OC)cc1Cl	-1.3
37	O=C(Cc1ccc(Cl)cc1)NNC(=O)c1ccco1	-1.4
38	CC(C)C1C(C#N)=C(N)SC(N)=C1C#N	0.2
39	CCCCNC(=O)c1nn(-c2ccccc2OC)c(=O)c2ccccc12	0.3
40	NC(=O)c1oc2ccccc2c1NC(=O)CCc1ccccc1	-1.3

By substructure, those above containing a furan ring, fused or not.
nr	smiles	STK33 kinase inh
17	CCn1c(SCC(=O)NCc2ccco2)nc2cccnc21	-0.5
37	O=C(Cc1ccc(Cl)cc1)NNC(=O)c1ccco1	-1.4
40	NC(=O)c1oc2ccccc2c1NC(=O)CCc1ccccc1	-1.3

Other compounds follow:
nr	smiles	STK33 kinase inh
41	O=C(CS(=O)CC(=O)N(CC(=O)NC1CCCC1)c1ccc2c(c1)OCCO2)Nc1ccc(F)cc1 (configuration not stated)	6.4
42	C#CCN1C(=O)C(O)(CC(=O)c2cc(OC)ccc2OC)c2ccccc21 (configuration not stated)	-0.8
43	COCCNC(=O)C(=O)Nc1ccc(Cl)cc1C	0.7
44	Cc1ncoc1C(=O)Nc1ncc([N+](=O)[O-])s1	0.5
45	Cc1cc2c(c(=O)n1Cc1ccccn1)C(C(C)C)C(C#N)=C(N)O2 (configuration not stated)	-0.8
46	COc1cccc(CNC(=O)c2nnn(CC(=O)Nc3ccc(Br)cc3)c2N)c1	-0.1
47	O=C1Nc2ccccc2N(O)N1c1cc(-c2ccc(Cl)cc2)[nH]n1	2.1
48	Cc1cc(/C=C(\C#N)C(=O)NCc2cccs2)c(C)n1-c1ccccc1F	0.1
49	CC(NC(=O)Nc1ccccc1)c1ccccc1 (configuration not stated)	-0.2
50	C/C(=N\NC(=O)c1cc(C)[nH]n1)C(C)(C)C	0.7
51	Cc1ccccc1C(=O)N1CCC(C(=O)Nc2ccc(S(=O)(=O)N(C)C(C)C)cc2)CC1	-0.7
52	O=C(Nc1ccccc1C(F)(F)F)N1CCCCCC1	0.7
53	O=C(O)c1cccc(Nc2ccc([N+](=O)[O-])cn2)c1	-0.1
54	Cc1ccc(N(CC(=O)NCCc2ccccc2)C(=O)CCC(=O)Nc2cc(C)ccn2)cc1	-2.2
55	Cc1ccc(SCC(=O)OC(C)C(=O)NCc2ccccc2)cc1C (configuration not stated)	0.6
56	Clc1ccc(CN=C(Nc2ccccc2)NC2CCCCC2)cc1	0.8
57	CC(C)c1cc(C(=O)O)n(-c2ccccc2)n1	-2.0
58	NC(=O)c1ccccc1NS(=O)(=O)c1ccc2c(c1)OCCO2	-6.3
59	Cc1cccc(-n2c(O)c(C=Nc3ccc(O)cc3)c3ccccc3c2=O)n1	0.1
60	Cc1ccc(OCCNC(=O)c2ccc3c(c2)OCO3)cc1	-3.0
61	COc1nc(NC(C)C)nc(N(C#N)CN2C(=O)c3ccccc3S2(=O)=O)n1	-0.4
62	CCOc1cc(NC(=S)NCC2CCCO2)c(OCC)cc1NC(=O)c1cccc(C)c1 (configuration not stated)	-0.2
63	COC(=O)c1cn(NC(=O)Cc2cccc(OC)c2)c(=O)c2ccccc12	-0.3
64	CCC/C(O)=N\S(=O)(=O)c1ccc(N=NN(C)C)cc1	0.0
65	CCCOc1ccc(Br)cc1/C=N/NC(=O)c1cc(OC)c(OC)c(OC)c1	-0.3
66	Cc1csc(SCC(=O)NCc2ccc3c(c2)OCO3)n1	1.2
67	COc1ccc(C2C(C(C)=O)=C(C)Nc3ncnn32)cc1[N+](=O)[O-] (configuration not stated)	-0.7
68	O=C(NCc1nnnn1-c1ccc(F)c(F)c1)C(=O)c1c[nH]c2ccccc12	0.5
69	COc1ccc(NC(=O)C(CCSC)NC(N)=O)cc1Cl (configuration not stated)	0.7
70	COc1ccc(NC(=O)N2CCN(C(=O)c3ccco3)CC2)c(OC)c1	0.5
71	Cc1ccc(C(=O)NC(=S)Nc2ccc(CN3CCOCC3)cc2)cc1	-2.4
72	Cc1cccc(C)c1NC(=O)CSc1nnc(-c2ccco2)n1N	-0.6
73	CCc1nc(N(CC)CC)c2oc3ccccc3c2n1	0.3
74	COC(CN(C(=O)CCl)C(C(=O)NC1CCCCC1)c1ccc(C)cc1)OC (configuration not stated)	-1.9
75	O=C(NCc1ccc(OC(F)(F)F)cc1)C1CC2Cn3c(nc4ccccc43)C2N1Cc1ccccc1 (configuration not stated)	0.3
76	Cc1cc(C)n(CCNC(=O)C2CCC(=O)N(Cc3ccc(Cl)cc3)C2)n1 (configuration not stated)	-1.5
77	COc1ccc(NC(=O)c2ccco2)c(NC(=O)c2ccc([N+](=O)[O-])cc2)c1	2.6
78	CC(C)N(CCCNC(=O)c1ccc(N2CCCC2=O)cc1)Cc1ccccc1	-0.9
79	CC1CN(C(=O)COC(=O)c2ccccc2O)CC(C)O1 (configuration not stated)	-0.8
80	Cc1ccc(-c2ccc(C(=O)O)[nH]2)cc1	-1.8
81	Cn1nnnc1SCCNCc1ccccc1OCc1ccc(F)cc1	0.7
82	N=c1sccn1CC(=O)Nc1cc(Cl)ccc1[N+](=O)[O-]	-1.1
83	O=S(=O)(NCCC1CC1(Cl)Cl)c1ccccc1 (configuration not stated)	-0.5
84	CCC(=O)N1CC2(CC(c3cccc(NC(=O)CC(c4ccccc4)c4ccccc4)c3)=NO2)C[C@H]1C(N)=O (some centres not stated)	-0.8
85	O=S(=O)(NCC1CCCO1)c1ccc2ccccc2c1 (configuration not stated)	-1.6
86	O=C(O)C(Cc1ccc(F)cc1)c1ccccc1 (configuration not stated)	1.8
87	CCOc1ccccc1C(=O)N(CN1CCCC1=O)c1cccc(Cl)c1	-0.8
88	COc1ccc(C2=NS(=O)(=O)N(C)C(C(=O)NC3CCCC3)=C2)cc1	-0.9
89	CCOC(=O)C1=C(CSc2nc3c(cc2C#N)CCC3)OC(N)=C(C#N)C1c1ccccc1 (configuration not stated)	-0.3
90	COc1ccc(N2C(=O)[C@H]3[C@@H](C2=O)C2c4ccccc4C=NN2[C@H]3C(=O)C(C)(C)C)cc1 (some centres not stated)	-0.9
91	C=CCOc1c(Br)cc(/C=N/n2c(CC)n[nH]c2=S)cc1Br	-0.5
92	C=CCn1c(SCC(=O)c2ccc(OC)cc2)nnc1C(C)NC(=O)c1cccs1 (configuration not stated)	-0.1
93	CN(C)C1=NCCN1CC1CCCC1	0.3
94	COc1cc(OC)c(NC2=NCCCCC2)cc1Cl	0.0
95	COc1ccc(NC(=O)c2ccccn2)cc1	-1.5
96	Cc1nn(-c2ccccc2)c2sc(C(=O)NC3CCCCC3)cc12	-0.4
97	Cc1cc(Cl)ccc1NC(=S)NCCC(c1ccccc1)c1ccccc1	1.5
98	CC(C)(CNS(=O)(=O)c1ccc(Cl)cc1)N1CCCCC1	-1.6
99	CC(=O)c1nnn(-c2cccc(C#N)c2)c1C	-0.3
100	O=C(COC(=O)C1CCN(c2ccc(C(F)(F)F)cn2)CC1)NCCc1ccccc1	0.2

Two compounds picked at random from those above, as already listed:
nr	smiles	STK33 kinase inh
78	CC(C)N(CCCNC(=O)c1ccc(N2CCCC2=O)cc1)Cc1ccccc1	-0.9
39	CCCCNC(=O)c1nn(-c2ccccc2OC)c(=O)c2ccccc12	0.3

New compounds follow
nr	smiles	STK33 kinase inh
101	O=C(OCc1nc2ccc(Cl)cc2n1CCO)c1ccc2c(c1)OCO2	-0.4
102	O=C(NCc1ccc(F)cc1)c1cnccn1	0.9
103	COc1ccc(-c2nnc(NC(=O)c3c(OC)cccc3OC)s2)cc1	-1.2
104	CCN(C(=O)CSc1nc2ccccc2o1)c1c(N)n(Cc2ccccc2)c(=O)[nH]c1=O	0.0
105	Cc1ccc(-c2noc(CN(C(=O)CCN3C(=O)c4ccccc4C3=O)C(C)C)n2)cc1	-1.5
106	Cc1nc(SCC(=O)N2CCN(C(=O)c3ccco3)CC2)c2c(C)c(C)sc2n1	-0.2
107	Cc1cc(C)c2c(=O)[nH]n(C3CCCCCC3)c2n1	-1.2
108	CCNC(=O)C/C(C)=N/NC(=O)C(=O)Nc1ccc(CC)cc1	-0.1
109	COC(=O)c1ccc(/C=N/NC(=O)CCSc2nc3ccccc3s2)cc1	0.8
110	Cc1cccnc1NC(=O)c1ccc(NS(=O)(=O)c2ccc3[nH]c(=O)[nH]c3c2)cc1	0.3
111	O=C(NCCN1CCOCC1)C(=O)NCC1OCCN1S(=O)(=O)c1ccccc1 (configuration not stated)	-2.2
112	Cc1nc(-c2cccc(NC(=O)c3cccs3)c2)cs1	1.3
113	Cc1ccc(-n2nc(C(=O)c3ccccc3)n3c(=O)cc(-c4ccccc4)nc23)cc1	-0.1
114	Cc1cc(Cl)ccc1OCC(=O)Nc1nc(-c2cccnc2)cs1	0.2
115	O=C(O)COn1c(-c2ccccc2)nc2ccc(Cl)cc21	0.0
116	O=C(Nc1cccc(F)c1)N1CCN(C/C=C/c2ccccc2)CC1	-0.1
117	CCOC(=O)C1CCN(S(=O)(=O)c2ccc(CC)cc2)CC1	0.3
118	CC(=O)NCC(c1cccs1)S(=O)(=O)c1ccc(F)cc1 (configuration not stated)	-0.4
119	COc1ccc(OC)c(N2C(N)=C(C#N)C(c3ccc(OC)c(O)c3)C3=C2CC(C)(C)CC3=O)c1 (configuration not stated)	-0.8
120	Clc1ccc(-c2onc3c2CCCC3)cc1	-0.6
121	COc1ccc2nc3cc(Cl)ccc3c(Nc3cc(C(C)C)c(O)cc3C)c2c1	0.6
122	CCN(Cc1ccncc1)C(=O)CSc1ccc2ccccc2c1	-1.4
123	O=C1OC(Cc2ccccn2)C(=O)C1=C1SCCS1 (configuration not stated)	-2.3
124	CCC(CC)C(=O)c1c[nH]c(C(=O)NCc2ccncc2)c1	-0.8

Some values from the entries so far:
compound 124 | STK33 kinase inh: -0.8
compound 122 | STK33 kinase inh: -1.4

Three entries out of the list, ordered by length of the SMILES, smallest number first:
nr	smiles	STK33 kinase inh
120	Clc1ccc(-c2onc3c2CCCC3)cc1	-0.6
123	O=C1OC(Cc2ccccn2)C(=O)C1=C1SCCS1 (configuration not stated)	-2.3
119	COc1ccc(OC)c(N2C(N)=C(C#N)C(c3ccc(OC)c(O)c3)C3=C2CC(C)(C)CC3=O)c1 (configuration not stated)	-0.8

Compound activity from PubChem BioAssay.
